# HCMV NEC inh – disrupts HCMV UL50-UL53 complex binding | hit rate 0.15% among 190,000 | inhibition, % (no concentration beside the values) | HTRF UL50-UL53 interaction, normalized percent inhibition;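 active = both replicates at 50% or more, plus weaker picks with an unusually low signal ratio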;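 also: stock transfer was 100 nL into about 20 µL; 0% = negative control wells and 100% = wells with untagged competitor protein; inactives centre near -12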
# Sa growth 42C – S. aureus growth inhibition | S. aureus RN4220 growth, OD600, 20 h, 42 °C; active compounds read low | relative growth, % (concentration not given with the values) | hit rate 0.53% among 170,000;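 active = growth at 42 °C up to 50% and 20 or more points under that at 30 °C, or under 10% at both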;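 also: 300 nL library stock went into each well; scaled to the means of positive and negative controls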
# GIV Gai3 FP – GIV-Galpha-i interaction inhibition. Galpha-i3/FITC-GIV peptide fluorescence polarization, 90 min; active compounds read low; scaled: aluminum fluoride 0%, vehicle 100%. percent of control (FP), % (concentration not given with the values). hit rate 0.42% among 210,000. AID 1224905;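 active = replicate mean at 85% of control or lower, very high polarization wells dropped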;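 also: wells of about 15 µL received 100 nL stock; the first replicate is given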
# Target sequence (P08753 whole entry, looked up): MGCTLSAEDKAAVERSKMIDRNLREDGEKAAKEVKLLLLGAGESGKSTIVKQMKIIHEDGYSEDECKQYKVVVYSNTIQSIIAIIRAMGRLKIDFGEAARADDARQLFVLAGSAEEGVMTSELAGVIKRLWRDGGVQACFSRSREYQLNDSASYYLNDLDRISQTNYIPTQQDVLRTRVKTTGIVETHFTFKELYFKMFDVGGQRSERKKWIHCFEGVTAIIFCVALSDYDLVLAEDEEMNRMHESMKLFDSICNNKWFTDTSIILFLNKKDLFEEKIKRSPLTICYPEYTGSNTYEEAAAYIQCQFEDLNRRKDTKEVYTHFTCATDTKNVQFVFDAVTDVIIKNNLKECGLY
# Sa growth 42C second temp – further read-out of Sa growth 42C, marked with its call; relative growth, %; measured here: growth at 30 °C;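 optical density after 20 h as mean of two plates; 100% = untreated growth and lower means inhibition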
# * marks the source's active call; other numbers are inactive results; nt = no result given; & = joins results of further samples.
SMILES,HCMV NEC inh,Sa growth 42C,Sa growth 42C second temp,GIV Gai3 FP
O=c1[nH]cc(COCc2ccccc2)c(=O)[nH]1,-9,124,89,nt
CNC(=O)/C(=C\c1ccc(OC)cc1)NC(=O)c1ccccc1,-31,100,87,nt
Nc1cc(=O)nc(SCC(=O)Nc2cccc(Cl)c2)n1CCc1ccccc1,-11,116,84,108
FC(F)(F)c1cccc(N2CCNC2=S)c1,-23,83,87,112
COCc1nc2ccccc2n1Cc1ccc(C(C)(C)C)cc1,nt,84,80,100
CCOc1ccc(/C=C2\SC(=N)N(c3ccc4c(c3)OCO4)C2=O)cc1OC,-27,nt,nt,107
CN(C)c1ccc(C(CNC(=O)c2ccc(Br)cc2)N(C)C)cc1 (stereo unspecified),7,nt,nt,103
COc1ccc(Cl)cc1NC(=O)c1c(NCc2cccs2)sc2c1CCC(C)C2 (stereo unspecified),nt,63,97,104
CC1(C)Cc2c(c(N3CCOCC3)nc3sc(C(=O)Nc4ccc(Cl)cc4)c(N)c23)CO1,-39,86,91,97
Cc1ccc(C2CC(=O)Nc3c2c(C)nn3-c2ccc3nncn3n2)cc1 (stereo unspecified),-16,nt,nt,102
Cc1c(C(=O)Nc2ccc(F)cc2F)sc2ncnc(N3CCN(C)CC3)c12,-75,nt,nt,101
CCN(CC)C(=O)c1cccc2c1C(=O)c1ccccc1-2,-63,132,98,108
O=C1c2ccccc2N(Cc2ccc(Cl)cc2)C2=NCCN12,-31,91,77,97
Cc1nc(N2CCCC2)c2c(C(=O)Nc3cccc(C)c3C)c(C)oc2n1,nt,78,88,100
Cc1ccc2oc(N3CCCN(C(=O)c4ccc(-c5noc(C6CC6)n5)cc4)CC3)nc2n1,-15,nt,nt,103
CCOC(=O)c1ccccc1NC(=O)c1sc2nc(-c3ccc(F)cc3)cn2c1C,nt,76,78,106
N#Cc1cnn(S(=O)(=O)c2ccc(Cl)cc2)c1C1CC1,-31,81,83,99
c1cc(CN2CCC(N3CCCCC3)CC2)n(-c2nnc(N3CCCCC3)s2)c1,-5,nt,nt,107
CN(C)/C=C\c1ccnc(-c2cc(/C=C\N(C)C)ccn2)c1,6,98,51,102
CCCOc1ccc2cc(S(=O)(=O)N3CCCC3)ccc2c1,-21,105,91,102
CCOC(=O)CSc1nc2cc(C(=O)N3CCC(C(N)=O)CC3)ccc2c(=O)n1-c1ccccc1,-2,93,80,100
Cc1oc(-c2ccccc2F)nc1CSCC(=O)N1CCN(c2ccccc2)CC1,-19,92,46,103
COc1ccc(NC(=O)CN2CCC(C)CC2)cc1,-19,103,97,105
Cc1cc(C(=O)CSc2nnc(N)s2)c(C)n1CCc1ccc(Cl)cc1,-12,102,93,nt
COc1ccccc1-n1cnnc1SCc1cccc(Cl)c1,-14,90,82,nt
CCCn1c(NCCCN(CC)CC)nc2ccccc21,-4,98,98,109
Fc1ccc2c(c1)CN(c1ccccc1F)CO2,nt,120,76,103
Cc1nc2ccc(Br)cn2c1NC(C)(C)C,-6,92,76,106
O=C(c1cnc2cc(-c3ccccc3)nn2c1)c1cc(Cl)ccc1O,-17,nt,nt,95
COc1ccc(C)cc1NC(=O)Cn1cc(S(=O)(=O)N2CCC(C)CC2)c2ccccc2c1=O,9,112,98,107
Cc1c(C(=O)NCCN(C)C)oc2ccc(S(=O)(=O)N3CCCC3)cc12,-30,87,85,97
Cc1cc(=O)n2nc(N3CCC(C(=O)Nc4c(C)cccc4C)CC3)sc2n1,2&-27,101,91,114&97
COc1cc(Cl)cc(/C=N/n2c(-c3ccc(C)cc3)n[nH]c2=S)c1O,-6,109,94,124
CC12CCC(C(=O)N(CC#N)CC#N)(OC1=O)C2(C)C (stereo unspecified),-26,77,86,98
CCOc1cc(C#N)ccc1OCC(=O)N1c2ccccc2NC(=O)CC1C (stereo unspecified),-9,93,99,nt
COc1ccc(N(CC(=O)Nc2ccc(OC)c(OC)c2)S(=O)(=O)c2ccccc2[N+](=O)[O-])c(OC)c1,5,nt,nt,102

# Complete entries, looked up by structure. Values in the order: HCMV NEC inh, Sa growth 42C, Sa growth 42C second temp, GIV Gai3 FP
# Cc1cc(=O)n2nc(N3CCC(C(=O)Nc4c(C)cccc4C)CC3)sc2n1 in the list: 2&-27, 101, 91, 114&97
# COc1ccc(C)cc1NC(=O)Cn1cc(S(=O)(=O)N2CCC(C)CC2)c2ccccc2c1=O in the list: 9, 112, 98, 107

# The results go on:
SMILES,HCMV NEC inh,Sa growth 42C,Sa growth 42C second temp,GIV Gai3 FP
NC(=S)c1sccc1CS(=O)c1ccc(Cl)cc1 (stereo unspecified),-44,103,70,108
COc1ccc(C(=O)NCCC(C)C)cc1,-18,87,87,nt
Nc1ccccc1SCC(=O)N1CCc2ccccc21,8,95,98,nt
CCOC(=O)c1c(C)[nH]c(C)c1S(=O)(=O)N1CCC(C(=O)N2CCN(c3ccc(F)cc3)CC2)CC1,nt,94,98,101&99
Cc1cc(NC(=O)Nc2scc(S(=O)(=O)c3ccc(Cl)cc3)c2C)on1,-14,102,94,109
O=C(CCC(=O)N1CCc2cc(S(=O)(=O)NCCN3CCOCC3)ccc21)N1CCCC1,-18,nt,nt,96
CC(C)(C)CC(=O)NCc1nc(-c2ccccc2)no1,nt,86,92,103
COC(=O)c1cc2oc(C)cc2n1Cc1ccccc1Cl,-24,118,88,104
Cc1ccccc1-c1nc(CS(=O)(=O)CC(=O)NCc2cccc(Cl)c2)c(C)o1,4,102,103,101
COc1ccc(CCNC(=O)c2ccc3c(c2)N(Cc2ccccc2F)C(=O)c2ccccc2S3=O)cc1OC (stereo unspecified),-20,117,89,104
CCCc1nc(=S)[nH][nH]1,-5,78,90,nt
O=C(O)COc1ccc(C2SCCCS2)cc1,-2,95,96,nt
COc1ccc(OC)c(CCNC(=O)c2cc3c(=O)n(C)c4ccccc4c3n2C)c1,-41,114,86,105
COc1ccc(NC(=O)c2sc3nc4n(c(=O)c3c2C)CCC4)c(OC)c1,-8,105,93,99
COc1ccccc1CNC(=O)Cn1cccc1,nt,114,90,103
Cc1ccc(CN2CC(=O)N(c3ccc(C)c(C)c3)[C@@H]3CS(=O)(=O)C[C@@H]32)cc1,-12,nt,nt,102
O=C(O)COc1ccc(C2C3=C(CCCC3=O)OC3=C2C(=O)CCC3)cc1,1,91,81,103
Cc1c(NC(=O)c2ccccc2Cl)cccc1-c1nc2ccccc2s1,-18,nt,nt,112
CC(C)(C)C(=O)CSc1nnc(Cc2ccccc2F)n1N,-18,101,83,nt
NNC(=S)Nc1ccccc1Cl,2,78,78,100
CCN(CCCNC(=O)Cn1ncc2c3ccccc3n(C)c2c1=O)c1cccc(C)c1,-10,106,92,111
Cc1noc(C)c1COc1ccc2c(C)cc(=O)oc2c1,-13,97,86,101
Cc1ccc(-c2nnn(CC(=O)C(C)(C)C)n2)cc1Cl,-7,125,83,96
CCOc1ccc(C(c2c(O)cc(C)n(Cc3ccco3)c2=O)N2CCN(C)CC2)cc1 (stereo unspecified),nt,112,87,98

# Looked up above:
# Entry of `CCOc1ccc(C(c2c(O)cc(C)n(Cc3ccco3)c2=O)N2CCN(C)CC2)cc1` (stereo unspecified) in GIV Gai3 FP: 98
# Entry of `COc1ccccc1CNC(=O)Cn1cccc1` in GIV Gai3 FP: 103
# Entry of `Cc1ccc(CN2CC(=O)N(c3ccc(C)c(C)c3)[C@@H]3CS(=O)(=O)C[C@@H]32)cc1` in GIV Gai3 FP: 102

# Further compounds follow:
SMILES,HCMV NEC inh,Sa growth 42C,Sa growth 42C second temp,GIV Gai3 FP
O=c1n(-c2ccccc2)c(=O)n2n1C1CCC2C1,-11,102,91,105
C=CCN1C(=O)/C(=C/C(=O)OCC)c2ccccc21,4,nt,nt,102
CCC/C(O)=C(\C#N)c1nc2ccccc2[nH]1,-8,109,88,115
CCOc1ccccc1N(CC)C(=O)C1CCCN(c2ncnc3c2nc2n3CCCCC2)C1 (stereo unspecified),nt,92,80,100
N#CCOC(=O)C1CSC2(c3ccc(Br)cc3)CCC(=O)N12 (stereo unspecified),4,130,103,nt
Cc1ncoc1C(=O)Nc1ccc(C(N)=O)cc1,nt,102,100,99
N#CCCn1cc(CNCCCn2cnc3ccccc32)c(-c2ccccc2)n1,1,68,93,nt
CCOC(=O)C1CCCN(C(=O)Cn2c(=O)c3ccccc3n3c(=S)sc(-c4ccccc4F)c23)C1 (stereo unspecified),5,nt,nt,103
CSc1sc(C(=O)N2CCc3ccccc32)cc1S(=O)(=O)C(C)C,-4,95,84,103
Cn1c(CNc2nc(-c3ccccc3)cs2)nnc1SCC(=O)c1ccccc1,-14,97,68,101
Cc1ccc(-c2noc(-c3ccc(N4CCC(C)CC4)c([N+](=O)[O-])c3)n2)cc1,-5,104,91,104
COc1ccc(OC(=O)c2cnc3n(c2=O)CCS3)cc1,-15,81,94,110
CC1(C)CNC(=S)NC1,-6,79,91,nt
CCCC(C(=O)Nc1cc(C)c(Cl)cc1OC)N1Cc2ccccc2C1=O (stereo unspecified),nt,101,86,102
CCCOc1ccc(C2C(C(=O)OCCOC)=C(C)NC3=C2C(=O)CC(c2ccccc2)C3)cc1OC (stereo unspecified),-50,nt,nt,108
COC(=O)NC1CSCC1OC(=O)CCCN1C(=O)c2ccccc2C1=O (stereo unspecified),-19,79,87,nt
CC(C)c1nn2c(=O)cc(COC(=O)c3ccc(NC(=O)c4ccccc4Cl)cc3)nc2s1,nt,109,92,105
Fc1ccccc1-c1nc(-c2cccnc2)no1,nt,103,90,95
N#C/C(=C\c1ccccc1)C(N)=O,-46,97,102,94
COc1cc(OC)c(OC)cc1CNC(=O)CCc1c(C)noc1C,-28,105,95,nt
COc1cc(OC)c(NC(=O)C2=C(C)C(=O)OC23CCN(C(C)C)CC3)cc1Cl,-2,94,91,109
CC(=O)Nc1ccc(Nc2nc3c(S(=O)(=O)c4ccc(C)c(C)c4)nnn3c3ccccc23)cc1,nt,92,85,102
CCOC(=O)c1ccc(N2C(=O)c3n[nH]c(-c4cccs4)c3C2c2ccc(C(C)(C)C)cc2)cc1 (stereo unspecified),-5,106,103,104
O=C1COc2ccc(C(=O)NC3CC3)cc2N1,3,116,76,104

# 5 entries out of the list, arranged by SMILES length, lowest first:
SMILES,HCMV NEC inh,Sa growth 42C,Sa growth 42C second temp,GIV Gai3 FP
COc1cc(OC)c(OC)cc1CNC(=O)CCc1c(C)noc1C,-28,105,95,nt
CCCC(C(=O)Nc1cc(C)c(Cl)cc1OC)N1Cc2ccccc2C1=O (stereo unspecified),nt,101,86,102
CC(C)c1nn2c(=O)cc(COC(=O)c3ccc(NC(=O)c4ccccc4Cl)cc3)nc2s1,nt,109,92,105
CC(=O)Nc1ccc(Nc2nc3c(S(=O)(=O)c4ccc(C)c(C)c4)nnn3c3ccccc23)cc1,nt,92,85,102
CCOC(=O)c1ccc(N2C(=O)c3n[nH]c(-c4cccs4)c3C2c2ccc(C(C)(C)C)cc2)cc1 (stereo unspecified),-5,106,103,104

# (cont.)
SMILES,HCMV NEC inh,Sa growth 42C,Sa growth 42C second temp,GIV Gai3 FP
CCN(CC)S(=O)(=O)c1cccc(C(=O)N2CC(O)CC2C(=O)O)c1 (stereo unspecified),-8,97,90,100
CC1CCN(Cc2ccc(NC(=O)NCc3noc4ccccc34)cc2)CC1,-17,89,85,100
COc1ccc(C)cc1NCC(=O)Nc1ncc(Cl)c(C)c1Cl,-18,104,93,nt
Cc1cc(Nc2ccc(C(=O)O)cc2)nc(N)n1,4,84,99,104
Cc1sc2ncn(CC(=O)N(C)Cc3ccccc3)c(=O)c2c1S(=O)(=O)N1CCN(c2ncccn2)CC1,-14,81,88,106
Cc1ccc(S(=O)(=O)N2CCCC(c3nc(-c4ccc(OC(C)C)cc4)no3)C2)cc1 (stereo unspecified),-30,nt,nt,104
CC(C)C(=O)Nc1ccc(N(C)C)cc1C(=O)O,51*,nt,nt,99
Cc1[nH]n(-c2ccccc2)c(=O)c1Sc1nc2ccccc2[nH]1,1,122,91,nt
Cc1ccc(OCC(=O)Nc2nonc2-c2ccc(OCC(C)C)cc2)cc1,-4,nt,nt,102
CCCC(C)C(=O)NCc1ccncc1 (stereo unspecified),-18,89,88,nt
O=C(NCc1ccccc1)c1cccc(NC2=NC3CS(=O)(=O)CC3S2)c1 (stereo unspecified),nt,82,95,100
CC(C)Nc1ccc(C(F)(F)F)cn1,-2,94,102,97
O=C(COC(=O)c1ccc(C(O)c2ccccc2)cc1)c1ccccc1 (stereo unspecified),-4,107,62,100
COCCn1c(SCC(=O)c2ccc(F)cc2)nc2ccccc21,-15,99,91,nt
C=CCC(O)(CC=C)C(N)C(C)C (stereo unspecified),-6,90,88,101
CC(c1nnc(SCc2csc(-c3ccccc3)n2)n1-c1ccc(Cl)cc1)N(C)C (stereo unspecified),18,115,94,nt
CSC(=NCc1c(N(C)C)cccc1N(C)C)NC#N,-2,104,94,106
CC(=O)N1c2ccc(S(=O)(=O)NC(C(=O)NCc3ccccc3)C(C)C)cc2CC1C (stereo unspecified),nt,112,92,101
Cc1ccc(-c2nc(-c3cc4cccc(OCc5cccc(F)c5)c4oc3=O)no2)cc1,-6,67,49,109
CC(=O)Nc1cccc(C(=O)OCC(=O)NC2CCS(=O)(=O)C2)c1 (stereo unspecified),3,95,93,nt
Clc1c2ccccc2c(/C=N/n2cnnc2)c2ccccc12,-36,119,81,nt
CC12CCC(C1)C(C)(C)C2NS(=O)(=O)c1ccc(F)cc1 (stereo unspecified),36,93,69,102
COc1ccc(C(=O)Nc2ccc(-n3nncc3-c3ccc(OC)c(OC)c3)cc2)cc1,nt,84,89,103
COc1ccc(C2CC(=O)C3=C(C2)NC(C)=C(C(=O)OC(C)C)C3c2ccccc2OC(C)C)cc1OC (stereo unspecified),7,nt,nt,106

# Source: PubChem
